Compound activity as filed in PubChem.
HSD17B inhib = HSD17B dehydrogenase inhibition; Q99714; recombinant HSD17B10, NADH fluorescence kinetic; many of its hits are not listed in these tables; Potency, µM (highest dose often 57.1 µM), for inactives: at the top dose activity change, negative = inhibition, hits mostly inhibitors; 75,000 compounds, 7.6% hits; AID 893; active means well fitted inhibition curve with a large enough effect; inconclusive means small, poorly fitted or top-dose-only effect; inactive means no such curve, though single readings can be large or run the other way;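 further: the protocol describes HADH2 (HSD17B10) and not the HSD17B4 of the title; nearly all actives have a fitted effect of over 70% in size; most hits overshoot -100% by far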
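Enzyme plus compound, 15 min room temperature; substrate mix added (NAD+ 1 mM, beta-hydroxybutyryl-CoA 90 uM final); plates read kinetically for NADH fluorescence. HADH2 was His-tagged, E. coli-derived, 20 nM.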
Starred values were filed as active, the others as inactive; u = inconclusive; [ ] = remark or other dose. On the % scale 0 is the no-effect control and ±100 the full control effect; potency means the concentration at half of the fitted maximal effect. These rows are one share of the data. The share of hits here may be higher or lower than overall.

SMILES | HSD17B inhib
CC[N+](C)(CC)CCOC(=O)C1c2ccccc2Oc2ccccc21 | 1%[25.6 µM]
Cc1cc2nc(C3CCN(Cc4nnnn4Cc4cccs4)CC3)[nH]c2cc1C | 0%
COc1ccccc1CNc1nc(-c2ccccc2OC)nc2ccccc12 | 6%
Cc1onc(-c2ccccc2)c1C(=O)N1CC(C)OC(C)C1 (stereo unspecified) | 8%
CC1(C)CC(=O)C(C=Nc2ccc3cn[nH]c3c2)=C(O)C1 | 34%[activator]
Cc1cc(NC(=O)CSc2nc3c(c(=O)n2-c2ccc(Br)cc2)SCC3)no1 | 7%
CCCCC(CC)CNC(=O)C1CCCN(S(=O)(=O)c2cnc[nH]2)C1 (stereo unspecified) | 7%
COc1ccc(NC(=O)CN(c2ccc(C(C)C)cc2)S(=O)(=O)c2c(C)noc2C)cc1OC | 8%
O=C(OCC(CO)OC(CO)n1ccc(=O)[nH]c1=O)c1ccccc1 (stereo unspecified) | 2%
O=C(CSc1nc2cc(Cl)ccc2o1)c1cccs1 | -12%
O=C(CCN1C(=O)c2ccccc2C1=O)N1CCC(c2ccccc2)C1 (stereo unspecified) | 10%
CS(=O)(=O)N(Cc1ccccc1)c1ccccc1C(=O)O | 3%
Cc1ccc(CNC(=O)CS(=O)Cc2nc(-c3cccs3)oc2C)cc1 (stereo unspecified) | 25µM*
O=C(Nc1ccc(Br)cc1F)C1CCCN(S(=O)(=O)c2cnc[nH]2)C1 (stereo unspecified) | 2%
Cc1ccccc1OCCCC(=O)Nc1ccc(N2CCOCC2)cc1 | -8%
O=C1CCCc2nn(-c3ccccc3)c(-c3ccncc3)c21 | -2%
CCCc1nnc(NC(=O)c2c(O)c3cccc4c3n(c2=O)CC4)s1 | 1%
O=C(Nc1ccccc1)N1CCC2(CC1)CCN(C(=O)c1csnn1)CC2 | -14%
CCOC(=O)c1[nH]c2ccccc2c1NC(=O)c1cc(OC)c(OC)c(OC)c1 | -9%
COc1cc(C(c2sc3ncnn3c2O)N2CCN(c3ccccc3F)CC2)cc(OC)c1OC (stereo unspecified) | 6%
C=CCN1C(=O)CS/C1=C(\C#N)S(=O)(=O)c1ccc(C)cc1 | 10µM*
Cc1ccc(C(=O)N2CCCC(c3nc4c(nnn4Cc4ccccc4)c(=O)[nH]3)C2)cc1 (stereo unspecified) | 1%
CCOc1ccc(-c2nc(CSCC(=O)NCCN3CCOCC3)c(C)o2)cc1 | 25µM*
CSc1cccc(-n2cc(-c3ccc4c(c3)OCO4)[nH]c2=O)c1 | 2%
Cc1nc(NCCN2CCOCC2)c2nnn(Cc3c(F)cccc3Cl)c2n1 | 3%
COC(=O)[C@@H]1CC[C@H](C)[C@@H](c2ccc(C)cc2)N1C(=O)c1ccc(/C=N\OC[C@@H]2O[C@H](c3ccccc3)C=C[C@@H]2Oc2ccc(OC)cc2)cc1 | -4%[11.4 µM]
CC(C)(CNCC(O)c1ccccc1)N1CCOCC1 (stereo unspecified) | 2%
Cc1cccc(N2CCN(C(=O)C34CC5CC(CC(C5)C3)C4)CC2)c1C | 11%
Cc1cc(C)nc(SCC2COc3ccccc3O2)n1 (stereo unspecified) | 12%
CCc1cc2c(nc1CC)CCN(CC/C(C)=N/O[C@@H](C)CN1CCCc3nc(C)c(C)cc31)C2 | -27%[11.4 µM]
O=C(Nc1ccccc1C1CC1)c1cccs1 | -1%
O=C(Nc1ccc2c(c1)OCO2)C1CCN(S(=O)(=O)Cc2ccccc2)CC1 | 6%
CC(NC(=O)C1CCCN(S(=O)(=O)c2cccs2)C1)c1ccccc1 (stereo unspecified) | 10%
COCCN(C(=O)Nc1ccccc1)C(C)c1cccnc1 (stereo unspecified) | 8%
Cc1ccc(N2CC(C(=O)OCc3ccccc3)CC2=O)cc1 (stereo unspecified) | 4%
CCc1nc(C)cn1S(=O)(=O)c1cc(Br)c(C)cc1OC | 2%
N#CCCN1CCN(S(=O)(=O)c2ccc(S(=O)(=O)N3CCCCCC3)cc2)CC1 | 11%
COc1ccc(S(=O)(=O)N2CCN(CCO)CC2)cc1-c1nnc2c3ccccc3c(C)nn12 | -14%
Cc1cc(C)nc(N2CCC(C(=O)Nc3nnc(C)s3)CC2)n1 | 0%
COc1ccc(CNC(=O)c2ccccc2SC)cc1 | 8%
Cc1ccc(S(=O)(=O)NC(=O)NC(C)(C)C)cc1 | 0%
COC(=O)c1cc(CSc2nnc(-c3ccccc3)c(-c3ccccc3)n2)oc1C | -18%
Clc1cccc(CSc2nnc([C@@H]3CCCN3)o2)c1 | 2%
CCCS(=O)(=O)N1CCN(Cc2ccncc2)CC1 | 1%
O=C(C1CCCCC1)N1CCC(n2nnc3ccccc32)CC1 | 0%
COc1ccccc1-c1nnc(SCC(=O)N2CCOCC2)o1 | 6%
O=C(NCc1cccnc1)c1ccccc1Br | 4%
O=C(CSc1ncnc2c1oc1ccccc12)Nc1ccc2c(c1)OCCO2 | -14%
O=C(COC(=O)c1ccccc1S(=O)(=O)N1CCCCC1)NCC(F)(F)F | 3%
Cc1c(NC(=O)OCCNC(=O)Nc2ccccc2)sc(=S)n1C | -14%
CCCn1c(CN2CCN(C(=O)OCC)CC2)nc2c1c(=O)n(C)c(=O)n2C | u
CC(=O)OC1CC[C@@]2(C)C3CC(=O)[C@]4(C)C(C(C)=O)=CCC4C3CC[C@H]2C1 (stereo partly specified) | -10%
Cc1ccc2c(c1)nnn2C1CCN(S(=O)(=O)c2ccc(C(=O)N3CC(C)CC(C)C3)cc2)CC1 (stereo unspecified) | 0%
O=C(c1ccccc1F)N1CCN=C1SCc1cccnc1 | 5%
CCc1nnc(NC(=O)CSc2nnc(-c3c[nH]c4ccccc34)n2C)s1 | 1%
O=C(COc1ccccc1)N(Cc1ccco1)c1ccc(O)cc1 | 5%
CC(=O)N[C@@H](Cc1c[nH]c2ccccc12)C(=O)O | 0%
Cc1cc(C)c(NC(=O)CSc2nc3c(c(=O)n2C)SC(C)C3)c(C)c1 (stereo unspecified) | 6%
CSc1nc2ccccc2n1C(=O)Oc1ccccc1 | 2%
Cc1ccccc1N(CC(=O)NCCc1ccccc1)C(=O)c1ccc(N2CCCC2)nc1 | -1%

(listing goes on)
SMILES | HSD17B inhib
O=c1c[n+]([O-])c2ccccc2n1OCc1c(F)cccc1F | u
O=C(O)CC(CC(=O)Nc1nncs1)c1ccccc1 (stereo unspecified) | 5%
CCC(=O)Nc1cc(C)c(NC(=O)c2ccccc2OC)cn1 | u
O=P(c1ccccc1)(c1ccccc1)C(O)c1ccncc1 (stereo unspecified) | 7.9µM*
O=C(Nc1ccccc1C(F)(F)F)N1CCCCCC1 | 1%
CC(NC(=O)Nc1ccccc1)c1ccccc1 (stereo unspecified) | 6%
Cc1ccc(S(=O)(=O)CC(=O)N2CCCCCC2)cc1 | 31%[activator]
O=C(Nc1ccncc1)C1c2ccccc2Oc2ccccc21 | 0%
Cn1c(C[C@@H](O)c2nc3ccccc3n2C)nc2ccccc21 | -6%[11.4 µM]
CSc1cccc(NS(=O)(=O)c2ccc(F)cc2)c1 | 8%
O=S1(=O)N=C(N2CCN(Cc3ccccc3)CC2)c2ccccc21 | 8%
CC1=C[N+](=O)c2ccccc2[N+]1=O | 14%[11.4 µM]
COc1ccc(COC(=O)N/N=C2/C[C@@H](O)[C@@H](O)[C@@H]3[C@@H]4C(=O)N(C5CCCCC5)C(=O)[C@H]4CC[C@H]23)cc1 | -1%[11.4 µM]
COc1ccc(Nc2nc(N)nc(CN3CCC(Cc4ccccc4)CC3)n2)cc1 | -8%
CCc1nn(C(C)C(=O)NCCN2CCN(c3cccc(C)c3C)CC2)c(=O)c2cc3occc3n12 (stereo unspecified) | 4%

Taken from the entries so far for reference:
SMILES | HSD17B inhib
CSc1nc2ccccc2n1C(=O)Oc1ccccc1 | 2%
Cc1ccccc1N(CC(=O)NCCc1ccccc1)C(=O)c1ccc(N2CCCC2)nc1 | -1%
O=c1c[n+]([O-])c2ccccc2n1OCc1c(F)cccc1F | u
O=C(O)CC(CC(=O)Nc1nncs1)c1ccccc1 (stereo unspecified) | 5%
CCC(=O)Nc1cc(C)c(NC(=O)c2ccccc2OC)cn1 | u
O=P(c1ccccc1)(c1ccccc1)C(O)c1ccncc1 (stereo unspecified) | 7.9µM*
O=C(Nc1ccccc1C(F)(F)F)N1CCCCCC1 | 1%
CC(NC(=O)Nc1ccccc1)c1ccccc1 (stereo unspecified) | 6%
Cc1ccc(S(=O)(=O)CC(=O)N2CCCCCC2)cc1 | 31%[activator]
O=C(Nc1ccncc1)C1c2ccccc2Oc2ccccc21 | 0%
Cn1c(C[C@@H](O)c2nc3ccccc3n2C)nc2ccccc21 | -6%[11.4 µM]
CSc1cccc(NS(=O)(=O)c2ccc(F)cc2)c1 | 8%
O=S1(=O)N=C(N2CCN(Cc3ccccc3)CC2)c2ccccc21 | 8%
CC1=C[N+](=O)c2ccccc2[N+]1=O | 14%[11.4 µM]
COc1ccc(COC(=O)N/N=C2/C[C@@H](O)[C@@H](O)[C@@H]3[C@@H]4C(=O)N(C5CCCCC5)C(=O)[C@H]4CC[C@H]23)cc1 | -1%[11.4 µM]
COc1ccc(Nc2nc(N)nc(CN3CCC(Cc4ccccc4)CC3)n2)cc1 | -8%
CCc1nn(C(C)C(=O)NCCN2CCN(c3cccc(C)c3C)CC2)c(=O)c2cc3occc3n12 (stereo unspecified) | 4%

Remaining list, next part.
SMILES | HSD17B inhib
CC1CN(S(=O)(=O)c2cccc(C(=O)NCc3ccc4c(c3)OCO4)c2)CC(C)O1 (stereo unspecified) | -1%
Cc1ccc(CCC(=O)Nc2ccc(S(N)(=O)=O)cc2)o1 | -15%
COc1ccc(-c2cc(C(F)(F)F)nc(N3CCN(Cc4ccccc4)CC3)n2)cc1OC | -6%
CCn1c2ccccc2c2cc(NC(=O)CSc3nnc(C4CC4)n3Cc3ccco3)ccc21 | -17%
Nc1nonc1C(=O)NC(c1ccccc1)c1ccccc1 | -7%
COc1ccc(-c2nnc3ccc(SCC(=O)N4CCOCC4)nn23)cc1 | -8%
COc1cc2cc(CN(CCCO)S(=O)(=O)c3ccccc3)c(=O)[nH]c2cc1OC | 32µM*
O=C(Nc1ccncc1)C1COc2ccccc2O1 (stereo unspecified) | -12%
CC(C)c1nc(SCC(=O)N2CCCC2)c2ccccc2n1 | -7%
Cc1cc(C)c(S(=O)(=O)Nc2ccc(C(=O)O)c(O)c2)cc1C | -13%
Cc1ccc(C)c(C(=O)CN2C(=O)CCC2=O)c1 | -2%
COc1ccc(S(=O)(=O)Cc2ccc(C(=O)N3CCN(c4ccc(Cl)cc4)CC3)o2)cc1 | -8%
Cc1cc2c(c(=O)n1Cc1ccccn1)C(C(C)C)C(C#N)=C(N)O2 (stereo unspecified) | 0%
CC(C)CNc1oc(-c2ccc(F)cc2)nc1C#N | 7.9µM*
CN(C)c1nc(Oc2ccc(N)cc2)nc(N(C)C)n1 | 2%
COc1ccc(NC2=NCC(=O)N2c2ccccc2F)c(OC)c1 | 2%
Cn1c(SCC(=O)N2CCc3ccccc3C2)nnc1-c1cccs1 | 3%
CCn1nc(C(=O)OCC(=O)c2ccc3c(c2)OCCO3)c2ccccc2c1=O | 2%
CC(C)c1ccc2c([Si](C)(C)C)c3c(nc2c1)-c1cccc(=O)n1C3 | -7%
CC(=O)CC(C)=NCCN=C(C)CC(C)=O | -4%
CCCC(=O)Nc1ccc2oc(-c3ccncc3)nc2c1 | 20µM*
Cc1ccc(C2(C)NC(=O)N(CC(=O)NC(=O)NC3CCCC3)C2=O)cc1 (stereo unspecified) | 1%
Cc1cc(OCC(O)CN(CCO)CCO)ccc1Cl (stereo unspecified) | 2%
COc1ccc(OCC(=O)N2CCOCC2)cc1 | 9%
COc1ccc(Br)cc1CNCCSc1nnnn1C | 5%
CCN(CC)CCCNC(=O)CC1Sc2ccccc2NC1=O (stereo unspecified) | 3%
Cc1cc(NC(=O)CS(=O)(=O)c2cn(Cc3ccccc3Cl)c3ccccc23)no1 | -4%
N=c1c2c(n(Cc3ccccc3)c3c1CCC3)CCC2 | 8%
C#CCN1C(=O)C(O)(CC(=O)c2cc(OC)ccc2OC)c2ccccc21 (stereo unspecified) | -15%
CCOC(=O)c1c(CN(C)C)oc2cc(CN(C)C)c(O)c(CSc3ccccc3)c12 | -14%
CC(=O)NCCc1ccc(S(=O)(=O)NCc2ccc3c(c2)OCO3)cc1 | 9%
Cc1ccc(-c2nnc(SCC(=O)N3c4ccccc4NC(=O)C3(C)C)n2N)cc1 | 2%
CCCCNC(=O)c1nn(-c2ccccc2OC)c(=O)c2ccccc12 | -7%
NC(=O)c1oc2ccccc2c1NC(=O)CCc1ccccc1 | 8%
O=C(Oc1ccc(N2C(=O)CCC2=O)cc1)c1ccco1 | -2%
CN1CCN(c2ncc3nc(-c4ccc(Cl)cc4)c(=O)n(-c4ccccc4)c3n2)CC1 | 25µM*
Cc1occc1-c1nnc(SCC(=O)N2CCOCC2)o1 | 3%
COc1cccc(C2CC(c3ccc(C(C)C)cc3)n3nc(N)nc3N2)c1 (stereo unspecified) | 1%
CCOc1ccc(C2CC(=O)c3c([nH]c(C(=O)OC)c3C)C2)cc1OC (stereo unspecified) | -9%
Cc1cc(SCC(=O)NC(=O)NCc2ccco2)nc2ccccc12 | u
Oc1c(CN2CCCCC2)cc(Br)c2cccnc12 | -13%
Cc1cc(NC(=O)CSc2cn(CCNC(=O)c3ccc(Cl)cc3)c3ccccc23)no1 | 18%
